Source: PubChem BioAssay
FGF22 binding = shifts melting point of recombinant human FGF22; calls only at 9.99 µM; recombinant FGF22 thermal shift, SYPRO orange fluorescence; percent of sucrose octasulfate shift, DMSO zero; Q9HCT0; 340,000 tested, 1.5% active;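 active = melting point raised past a set limit in the mean and every replicate; three in four hits are not shown here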
Target sequence (Q9HCT0 whole entry, looked up): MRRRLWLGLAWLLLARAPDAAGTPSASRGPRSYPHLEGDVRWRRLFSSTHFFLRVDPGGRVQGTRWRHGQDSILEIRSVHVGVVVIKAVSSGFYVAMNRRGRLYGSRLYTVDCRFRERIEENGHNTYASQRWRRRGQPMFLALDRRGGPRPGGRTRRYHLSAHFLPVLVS
Calls only; i = inactive. Not all compounds are listed (hit frequency here may not be typical).

FGF22 binding	smiles
i	CN(C)CC(=O)N[C@@H]1CC[C@H](CC(=O)NCCN2CCCCC2)O[C@@H]1CO
i	C[C@@H]1CN([C@@H](C)CO)C(=O)c2cc(C#CC3CC3)cnc2O[C@@H]1CN(C)S(C)(=O)=O
i	CC(C)C(=O)Nc1ccc2c(c1)C(=O)N(C)[C@H]1CC[C@H](CC(=O)NCC3CC3)O[C@@H]1CO2
i	COCC(=O)Nc1ccc2c(c1)[C@H]1C[C@@H](CC(=O)N3CCN(C)CC3)O[C@@H](CO)[C@H]1O2
i	CNC[C@@H]1Oc2cc(-c3ccc(C(=O)N(C)C)cc3)ccc2S(=O)(=O)N([C@@H](C)CO)C[C@H]1C
i	O=C(C[C@@H]1CC[C@H]2[C@@H](COC[C@H](O)CN2C(=O)Nc2ccc(Cl)cc2)O1)NC1Cc2ccccc2C1
i	O=C(C[C@H]1CC[C@@H](NC(=O)c2ccccn2)[C@H](CO)O1)NCc1cc(F)cc(F)c1
i	C[C@@H]1CN([C@@H](C)CO)C(=O)c2cccc(NC(=O)Nc3ccc(C(F)(F)F)cc3)c2O[C@@H]1CN(C)Cc1ccc(Oc2ccccc2)cc1
i	COc1ccc(C2CC(=O)C(c3ccc([N+](=O)[O-])cc3)=CN2Cc2ccccc2)cc1 (stereo not drawn)
i	CC=Cc1ccc2n(c1=O)C[C@@H]1[C@@H](CO)[C@H](C(=O)N[C@@H](C)c3ccccc3)N(C)[C@H]21 (mixture of isomers)
i	C[C@@H]1CCCCO[C@@H](CN(C)C(=O)Cc2ccccc2)[C@H](C)CN([C@@H](C)CO)C(=O)c2cc(NC(=O)Cc3ccccc3)ccc2O1
i	CCS(=O)(=O)Nc1ccc2c(c1)C(=O)N(C)[C@@H]1CC[C@@H](CC(=O)Nc3ccccc3)O[C@@H]1CO2
i	COC(=O)C[C@@H]1CC[C@H]2[C@H](COc3ccc(NC(=O)Nc4ccc(Cl)cc4)cc3C(=O)N2C)O1
i	COC(=O)[C@H]1[C@H](CO)[C@H]2Cn3c(ccc(C4=CCCC4)c3=O)[C@H]2N1CC1CCOCC1
i	COc1ccc(CN2CC3(CN(C(=O)Cc4ccccc4)C3)c3c([nH]c4cc(OC)ccc34)[C@H]2CO)cc1
i	Cc1noc(C)c1S(=O)(=O)Nc1ccc2c(c1)C(=O)N([C@@H](C)CO)C[C@@H](C)[C@@H](CN(C)C(=O)Nc1ccc(C(F)(F)F)cc1)OCCCC[C@@H](C)O2
i	Cc1ccc(S(=O)(=O)Nc2ccc3c(c2)C(=O)N([C@@H](C)CO)C[C@@H](C)[C@H](CN(C)S(=O)(=O)c2cn(C)cn2)O3)cc1
i	CCC(=O)N(C)C[C@H]1Oc2ncc(-c3ccc(C(=O)N(C)C)cc3)cc2C(=O)N([C@H](C)CO)C[C@H]1C
i	COC(=O)c1cc2c(c3c4cc(F)ccc4n(S(=O)(=O)c4ccc(OC)cc4)c13)C(=O)N(Cc1ccccc1OC)C2
i	Cc1noc(C)c1S(=O)(=O)N(C)C[C@@H]1Oc2ccc(NS(=O)(=O)c3ccc(Cl)cc3)cc2CC(=O)N([C@H](C)CO)C[C@@H]1C
i	CC(C)CC#Cc1ccc2c(c1)O[C@H](CN(C)C(=O)c1ccccc1)[C@H](C)CN([C@@H](C)CO)S2(=O)=O
i	Cc1noc(C)c1NC(=O)N[C@@H]1C=C[C@H](CC(=O)Nc2ccccc2)O[C@@H]1CO
i	Cc1ccc(S(=O)(=O)N(C)C[C@@H]2OCCCC[C@@H](C)Oc3ccc(NC(=O)Nc4ccc(C(F)(F)F)cc4)cc3C(=O)N([C@H](C)CO)C[C@@H]2C)cc1
i	Cc1noc(C)c1NC(=O)Nc1ccc2c(c1)CC(=O)N([C@@H](C)CO)C[C@@H](C)[C@H](CN(C)CC1CCCCC1)O2
i	C[C@@H]1CCCCO[C@@H](CN(C)C(=O)Nc2ccc(C(F)(F)F)cc2)[C@H](C)CN([C@@H](C)CO)C(=O)c2cc(NC(=O)Nc3ccccc3)ccc2O1
i	C[C@@H]1CCCCO[C@@H](CN(C)Cc2ccccc2)[C@@H](C)CN([C@@H](C)CO)C(=O)c2cc(NC(=O)NC3CCCCC3)ccc2O1
i	COCC(=O)Nc1ccc2c(c1)[C@@H]1C[C@H](CC(=O)N[C@@H](C)c3ccccc3)O[C@H](CO)[C@@H]1O2
i	C[C@@H]1CCCCO[C@@H](CN(C)CC2CC2)[C@@H](C)CN([C@H](C)CO)C(=O)c2cc(NC(=O)CCC(F)(F)F)ccc2O1
i	O=C(N[C@H]1CC[C@@H](CCNS(=O)(=O)Cc2ccccc2)O[C@@H]1CO)c1ccccc1F
i	CCCN1C[C@@H](C)[C@H](OC)CN(C)C(=O)c2ccc(NS(=O)(=O)c3ccccc3)cc2OC[C@@H]1C
i	C[C@H]1CN([C@@H](C)CO)S(=O)(=O)c2ccc(-c3ccc(C(=O)N(C)C)cc3)cc2O[C@H]1CN(C)C(=O)C1CCC1
i	Cc1ccc(S(=O)(=O)N(C)C[C@@H]2Oc3ccc(NC(=O)NC(C)C)cc3C(=O)N([C@@H](C)CO)C[C@@H]2C)cc1
i	Cn1cnc(CCNC(=O)C[C@@H]2CC[C@H]3[C@@H](COC[C@H](O)CN3C(=O)C3CC3)O2)c1
i	C[C@H]1[C@@H](c2ccccc2)Oc2c(Cl)cccc2S(=O)(=O)N1C
i	C[C@@H]1CCCCO[C@H](CN(C)Cc2ccc(C(=O)O)cc2)[C@H](C)CN([C@H](C)CO)C(=O)c2cc(NS(=O)(=O)c3cn(C)cn3)ccc2O1
i	CC(C)NC(=O)Nc1ccc2c(c1)C(=O)N(C)[C@H]1CC[C@H](CC(=O)Nc3ccccc3F)O[C@@H]1CO2
i	C[C@@H]1CN([C@@H](C)CO)C(=O)c2cccc(NC(=O)C3CCOCC3)c2O[C@@H]1CN(C)Cc1ccc2c(c1)OCO2
i	COCC(=O)N(C[C@@H]1N[C@@H](CO)[C@@H]1c1ccc(-c2ccccc2)cc1)C(C)C
i	C[C@H](CO)N1C[C@H](C)[C@H](CN(C)C(=O)Nc2ccccc2)Oc2ccc(NC(=O)CCCCCC(=O)Nc3ccccc3N)cc2C1=O
i	C[C@H](CO)N1C[C@H](C)[C@@H](CN(C)C(=O)C2CCC2)Oc2cc(-c3cccnc3)ccc2S1(=O)=O
i	O=C(O)[C@@H]1[C@@H](CO)[C@@H]2Cn3c(ccc(-c4ccccc4F)c3=O)[C@@H]2N1Cc1ccccc1
i	Cc1noc(C)c1NC(=O)Nc1ccc2c(c1)C(=O)N([C@@H](C)CO)C[C@H](C)[C@H](CN(C)S(=O)(=O)c1cccs1)OCCCC[C@H](C)O2
i	COCC(=O)N1C[C@@H]2[C@H](c3ccccc31)[C@@H](CO)N2C(=O)C1CC1
i	CO[C@@H]1CN(C)C(=O)c2cc(NC(C)=O)ccc2OC[C@@H](C)N(C(=O)C2CC2)C[C@@H]1C
i	OC[C@@H]1[C@H](c2ccc(-c3cccnc3)cc2)[C@H]2CN(CC3CC3)CCCCN12
i	COc1ccc(NC(=O)N(C)C[C@@H]2Oc3ccc(NC(=O)Nc4c(C)noc4C)cc3CC(=O)N([C@@H](C)CO)C[C@@H]2C)cc1
i	C[C@@H]1CN([C@@H](C)CO)C(=O)c2cc(C3=CCCCC3)cnc2O[C@@H]1CN(C)C(=O)C1CCOCC1
i	Cc1noc(C)c1S(=O)(=O)Nc1ccc2c(c1)C(=O)N([C@H](C)CO)C[C@H](C)[C@H](CN(C)S(=O)(=O)c1c(C)noc1C)OCCCC[C@H](C)O2
i	CC(=O)N1CC2(C1)[C@H](c1ccc(-c3cccc(C#N)c3)cc1)[C@H](CO)N2CCC(F)(F)F
i	C[C@H](O)C#Cc1ccc2c(c1)O[C@H](CN(C)C(=O)CN(C)C)[C@@H](C)CN([C@H](C)CO)S2(=O)=O

Remaining list, next part:
FGF22 binding	smiles
i	C[C@H]1CN([C@@H](C)CO)C(=O)c2cc(NC(=O)C3CC3)ccc2O[C@@H]1CN(C)S(=O)(=O)c1ccccc1
i	C[C@H](CO)N1C[C@H](C)[C@@H](CN(C)Cc2ccc(C(=O)Nc3ccccc3N)cc2)Oc2ccc(NS(=O)(=O)c3cccs3)cc2C1=O
i	C[C@H](CO)N1C[C@H](C)[C@H](CN(C)C(=O)Nc2ccc(F)cc2)Oc2c(cccc2N(C)C)C1=O
i	C[C@@H]1CN([C@@H](C)CO)C(=O)c2ccccc2-c2ccccc2CO[C@@H]1CN(C)C(=O)Nc1ccc(F)cc1
i	CCC(=O)N1CC[C@@H]2[C@H]1c1cc(-c3ccc(F)cc3)ccc1N(C)[C@@H]2CO
i	C[C@H](CO)N1C[C@H](C)[C@H](CN(C)S(=O)(=O)c2ccccc2)Oc2ccc(NC(=O)c3ccncc3)cc2C1=O
i	CC(C)NC(=O)N(C)C[C@H]1Oc2ncc(C3=CCCCC3)cc2C(=O)N([C@@H](C)CO)C[C@@H]1C
i	O=C(Cc1cccnc1)N1CC2(C1)[C@@H](c1ccccc1)[C@@H](CO)N2C(=O)C1CC1
i	O=C(Cc1ccccn1)NCC[C@@H]1CC[C@H](NC(=O)CN2CCOCC2)[C@@H](CO)O1
i	CC(=O)N1CC(=O)N2[C@H](CO)[C@H](c3ccc(C#CC(C)C)cc3)[C@H]2C1
i	CCCNC(=O)Nc1ccc2c(c1)OC[C@H](C)N(Cc1ccccn1)C[C@@H](C)[C@@H](OC)CN(C)C2=O
i	CN1CCN(C(=O)C[C@H]2CC[C@@H]3[C@H](COc4ccc(NC(=O)c5cccs5)cc4C(=O)N3C)O2)CC1
i	C[C@H]1CN([C@@H](C)CO)C(=O)c2cc(NC(=O)Cc3ccccc3)ccc2O[C@@H]1CN(C)C(=O)Nc1ccccc1
i	C[C@@H]1CN([C@H](C)CO)C(=O)c2cccc(NS(=O)(=O)c3ccccc3)c2O[C@@H]1CN(C)S(=O)(=O)c1ccc(F)cc1
i	C[C@H](NC(=O)C[C@H]1CC[C@H](NC(=O)Nc2ccc3c(c2)OCO3)[C@H](CO)O1)c1ccccc1
i	CC=Cc1ccc2n(c1=O)C[C@H]1[C@H](CO)[C@@H](C(=O)NCC)[C@@H]2N1CCC(F)(F)F (mixture of isomers)
i	CN(C)CC(=O)N1[C@H](CO)[C@H](c2ccccc2-c2cccc(C(=O)N(C)C)c2)[C@@H]1C#N
i	C[C@H](CO)N1C[C@H](C)[C@@H](CN(C)S(C)(=O)=O)Oc2ccc(NC(=O)Cc3ccccc3)cc2CC1=O
i	C[C@H]1CN([C@@H](C)CO)C(=O)c2cccc(NS(=O)(=O)c3ccc(F)cc3)c2O[C@@H]1CN(C)S(=O)(=O)c1cccs1
i	Cc1noc(C)c1NC(=O)N(C)C[C@@H]1Oc2ccc(NC(=O)Nc3ccc4c(c3)OCO4)cc2CC(=O)N([C@H](C)CO)C[C@@H]1C
i	Cc1noc(C)c1NC(=O)N(C)C[C@H]1Oc2c(NC(=O)c3ccncc3)cccc2C(=O)N([C@H](C)CO)C[C@H]1C
i	CC(C)CC#Cc1cnc2c(c1)C(=O)N([C@H](C)CO)C[C@H](C)[C@@H](CN(C)C(=O)Cc1cccnc1)O2
i	Cc1ccc(S(=O)(=O)N(C)C[C@H]2Oc3ccc(NC(=O)Nc4ccc5c(c4)OCO5)cc3C(=O)N([C@@H](C)CO)C[C@@H]2C)cc1
i	CN(C)CC(=O)Nc1ccc2c(c1)[C@@H]1C[C@@H](CC(=O)NCc3cc(F)ccc3F)O[C@H](CO)[C@@H]1O2
i	CN1[C@H](C(=O)NCc2ccccc2F)[C@@H](CO)[C@@H]2Cn3c(ccc(C4=CCCC4)c3=O)[C@@H]21

Reformatted: entries from further up
| smiles | FGF22 binding |
| --- | --- |
| CC(=O)N1CC(=O)N2[C@H](CO)[C@H](c3ccc(C#CC(C)C)cc3)[C@H]2C1 | i |
| CCCNC(=O)Nc1ccc2c(c1)OC[C@H](C)N(Cc1ccccn1)C[C@@H](C)[C@@H](OC)CN(C)C2=O | i |
| CN1CCN(C(=O)C[C@H]2CC[C@@H]3[C@H](COc4ccc(NC(=O)c5cccs5)cc4C(=O)N3C)O2)CC1 | i |
| C[C@H]1CN([C@@H](C)CO)C(=O)c2cc(NC(=O)Cc3ccccc3)ccc2O[C@@H]1CN(C)C(=O)Nc1ccccc1 | i |
| C[C@@H]1CN([C@H](C)CO)C(=O)c2cccc(NS(=O)(=O)c3ccccc3)c2O[C@@H]1CN(C)S(=O)(=O)c1ccc(F)cc1 | i |
| C[C@H](NC(=O)C[C@H]1CC[C@H](NC(=O)Nc2ccc3c(c2)OCO3)[C@H](CO)O1)c1ccccc1 | i |
| CC=Cc1ccc2n(c1=O)C[C@H]1[C@H](CO)[C@@H](C(=O)NCC)[C@@H]2N1CCC(F)(F)F (mixture of isomers) | i |

Next structures follow.
FGF22 binding	smiles
i	COc1cccc(-c2ccc3c(c2)[C@@H]2[C@@H](CCN2C(=O)c2ccccc2F)[C@H](CO)N3C)c1
i	C[C@@H]1CN([C@H](C)CO)C(=O)c2cccc(NC(=O)c3nc4ccccc4s3)c2O[C@@H]1CN(C)Cc1ccccc1
i	C[C@@H]1CN([C@H](C)CO)C(=O)c2cc(NS(C)(=O)=O)ccc2O[C@@H](C)CCCCO[C@@H]1CN(C)S(=O)(=O)c1cn(C)cn1
i	COCC(=O)Nc1ccc2c(c1)[C@@H]1C[C@H](CC(=O)NCc3ccccc3)O[C@H](CO)[C@@H]1O2
i	N#C[C@@H]1[C@H](c2ccc(C#CC3CCCC3)cc2)[C@@H](CO)N1S(=O)(=O)c1ccccc1
i	O=C(C[C@H]1CC[C@H](NC(=O)CCN2CCCCC2)[C@@H](CO)O1)Nc1nccs1
i	C[C@@H]1CN([C@@H](C)CO)C(=O)Cc2cc(NC(=O)C3CCCCC3)ccc2O[C@H]1CN(C)C

As a working copy, some entries already given:
FGF22 binding	smiles
i	N#C[C@@H]1[C@H](c2ccc(C#CC3CCCC3)cc2)[C@@H](CO)N1S(=O)(=O)c1ccccc1
i	O=C(C[C@H]1CC[C@H](NC(=O)CCN2CCCCC2)[C@@H](CO)O1)Nc1nccs1
i	C[C@@H]1CN([C@@H](C)CO)C(=O)Cc2cc(NC(=O)C3CCCCC3)ccc2O[C@H]1CN(C)C
